Screens from PubChem BioAssay.
AF4-AF9 inh = inhibitors of AF4 peptide binding to AF9, primary screen, biochemical, AlphaScreen, biotin-AF4 peptide, FLAG-AF9, single point; Protein AF-9 (Homo sapiens), P42568; inhibition, % at 10 µM; 0.47% of 350,000 active; AID 651704, 2012;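 active = every replicate reaching a set inhibition limit, whatever the replicate mean, cut at about 25% in these data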;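 note: 0% = plate neutral control median and 100% = total signal loss; the record names both 10 and 1 µM as test concentration; the first replicate is given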
Target sequence (P42568 whole entry, looked up): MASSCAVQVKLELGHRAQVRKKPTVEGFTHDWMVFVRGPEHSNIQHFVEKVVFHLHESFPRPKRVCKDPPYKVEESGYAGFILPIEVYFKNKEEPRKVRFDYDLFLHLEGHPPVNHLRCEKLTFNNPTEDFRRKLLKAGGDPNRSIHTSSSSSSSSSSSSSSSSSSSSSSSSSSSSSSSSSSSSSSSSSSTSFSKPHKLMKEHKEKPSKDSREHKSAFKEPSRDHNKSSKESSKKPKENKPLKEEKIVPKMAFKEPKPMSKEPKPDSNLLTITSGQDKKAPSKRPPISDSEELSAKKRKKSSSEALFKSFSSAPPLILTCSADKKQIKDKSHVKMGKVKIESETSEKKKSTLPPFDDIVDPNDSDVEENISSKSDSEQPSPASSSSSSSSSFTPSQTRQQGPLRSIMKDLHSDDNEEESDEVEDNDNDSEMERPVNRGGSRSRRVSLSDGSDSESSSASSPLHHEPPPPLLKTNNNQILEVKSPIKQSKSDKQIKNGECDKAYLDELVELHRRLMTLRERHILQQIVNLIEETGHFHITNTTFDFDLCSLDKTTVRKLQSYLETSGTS
Ecoli rRNA inh = reduced GFP signal of wild-type E. coli, primary screen, bacterial rRNA inhibitor project, GFP/RFP fluorescence, OD600, single point | E. coli WT GFP vs humanized-ribosome RFP mutants, 24 h; active compounds read low; DMSO median 0, no signal -100 | GFP signal change (wild-type ribosome), % (test concentration not listed) | 1.6% of 350,000 active | AID 720706, 2013;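 active = significant combined selectivity score with lowered wild-type GFP, culture density cut under 30%, mutant RFP and density less affected; inactive = any of these conditions unmet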; note: one replicate is shown; some compounds called inactive have numbers as strong as hits
Ecoli rRNA inh OD600 = further read-out of Ecoli rRNA inh, marked with its call; OD600 change, %; measured here: OD600 growth;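 optical density of the mix in the first replicate; 0 = DMSO median and -100 = no signal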
Ecoli rRNA inh RFP = also measured in Ecoli rRNA inh; calls as there; RFP signal change, %; measured here: RFP humanized mutant strains;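 first replicate; 0 = DMSO median and -100 = no signal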
* hit, by the source's call; & = joins results of further samples. A portion of the library (hit frequency here may not be typical).

Results follow in this order: AF4-AF9 inh	Ecoli rRNA inh	Ecoli rRNA inh OD600	Ecoli rRNA inh RFP
CCCNC(=O)N1CC(=O)N2[C@H](CO)[C@H](c3ccc(C#Cc4ccc(F)cc4)cc3)[C@H]2C1
→ 0.6	1.2	-10.0	1.5
O=C(C[C@@H]1CC[C@@H](NS(=O)(=O)c2ccc(F)cc2)[C@@H](CO)O1)NCc1ccccc1F
→ -2.4	-2.0	-7.8	0.3
CO[C@@H]1CN(C)C(=O)c2ccc(NC(=O)C3CC3)cc2OC[C@H](C)N(C(C)=O)C[C@@H]1C
→ 0.3	2.8	-3.1	-2.2
COc1cccc(-c2ccc(C3[C@@H]4CN(C(=O)Nc5ccc(F)cc5)C[C@H]3N4)cc2)c1 (some centres not stated)
→ 7.6	-62.2	-74.2	-12.2
CCCNC(=O)[C@H]1[C@H](CO)[C@H]2Cn3c(ccc(-c4ccccc4F)c3=O)[C@H]2N1C(C)=O
→ -1.4	0.8	2.6	-3.8
Cc1ccc(CN2CC(=O)N3[C@H](C2)[C@@H](c2ccc(-c4ccccc4F)cc2)[C@@H]3CO)cc1
→ 4.8	-4.6	-27.0	2.8
CN1c2ccc(-c3cccc(F)c3)cc2[C@H]2[C@H](CCN2C(=O)C2CCC2)[C@H]1CO
→ 28.0*	-48.5	-75.9	-7.9
CCCN1[C@H](C(=O)OC)[C@@H](CO)[C@@H]2Cn3c(ccc(-c4cccnc4)c3=O)[C@@H]21
→ -6.2	2.4	-2.7	-1.8
COc1ccc(C#Cc2ccc3c(c2)[C@H]2[C@H](CCN2Cc2nccs2)[C@@H](CO)N3)cc1
→ 6.8	-8.5	-1.6	11.8
CN(C)CCCNC(=O)C[C@H]1CC[C@H]2[C@@H](COC[C@H](O)CN2CC2CCCCC2)O1
→ -1.2	1.2	23.1	-5.2
CCCNC(=O)N1[C@@H]2CNC[C@H]1C2c1ccc(-c2ccc(C#N)cc2)cc1 (some centres not stated)
→ -2.7	2.7	8.3	0.8
N#C[C@H]1[C@@H](c2ccc(-c3cccc(F)c3)cc2)[C@H](CO)N1C(=O)NC1CCCCC1
→ 1.4	-38.2	-63.2	3.2
O=C(C[C@H]1CC[C@@H](NC(=O)C2CCOCC2)[C@H](CO)O1)Nc1ccccc1
→ -15.7	3.6	-0.1	0.0
CN(C)CC(=O)N1[C@@H](C#N)[C@@H](c2ccccc2-c2ccc(C(=O)N(C)C)cc2)[C@@H]1CO
→ -3.2	2.8	7.1	1.1
CCNC(=O)[C@H]1[C@H](CO)[C@H]2Cn3c(ccc(C4=CCCC4)c3=O)[C@H]2N1C(=O)CC1CC1
→ 1.1	3.1	-11.2	3.1
Cc1cccc(NS(=O)(=O)c2ccc(C)c(C(=O)NCC(c3cccs3)N(C)C)c2)c1 (configuration not stated)
→ 1.5	-4.4	-7.4	0.9
Cc1ccc(S(=O)(=O)N(C)C[C@@H]2OCCCC[C@@H](C)Oc3ccc(NC(=O)c4ccncc4)cc3C(=O)N([C@@H](C)CO)C[C@@H]2C)cc1
→ -0.3	0.8	9.5	-0.8
COc1ccc(CN(C)C[C@@H]2OCCCC[C@@H](C)Oc3ccc(NC(=O)c4ccccc4)cc3C(=O)N([C@@H](C)CO)C[C@H]2C)cc1
→ 5.0	-3.9	-12.5	-1.2
CCCNC(=O)[C@@H]1[C@@H](CO)[C@@H]2Cn3c(ccc(-c4ccccc4)c3=O)[C@@H]2N1C(=O)C1CC1
→ -3.7	2.5	8.1	-2.1
C[C@@H]1CN([C@@H](C)CO)S(=O)(=O)c2ccc(-c3cccc(F)c3)cc2O[C@H]1CN(C)C(=O)C1CC1
→ -1.6	-3.9	6.9	-4.9

Some of these compounds in order of the Ecoli rRNA inh value, highest first.
Results follow in this order: AF4-AF9 inh	Ecoli rRNA inh	Ecoli rRNA inh OD600	Ecoli rRNA inh RFP
CCCNC(=O)N1CC(=O)N2[C@H](CO)[C@H](c3ccc(C#Cc4ccc(F)cc4)cc3)[C@H]2C1
→ 0.6	1.2	-10.0	1.5
CCCNC(=O)[C@H]1[C@H](CO)[C@H]2Cn3c(ccc(-c4ccccc4F)c3=O)[C@H]2N1C(C)=O
→ -1.4	0.8	2.6	-3.8
COc1ccc(CN(C)C[C@@H]2OCCCC[C@@H](C)Oc3ccc(NC(=O)c4ccccc4)cc3C(=O)N([C@@H](C)CO)C[C@H]2C)cc1
→ 5.0	-3.9	-12.5	-1.2
CN1c2ccc(-c3cccc(F)c3)cc2[C@H]2[C@H](CCN2C(=O)C2CCC2)[C@H]1CO
→ 28.0*	-48.5	-75.9	-7.9
COc1cccc(-c2ccc(C3[C@@H]4CN(C(=O)Nc5ccc(F)cc5)C[C@H]3N4)cc2)c1 (some centres not stated)
→ 7.6	-62.2	-74.2	-12.2

(cont.)
Results follow in this order: AF4-AF9 inh	Ecoli rRNA inh	Ecoli rRNA inh OD600	Ecoli rRNA inh RFP
COc1ccc2c3c(n(C)c2c1)[C@H](CO)N(C(=O)CN1CCOCC1)CC31CCN(C)CC1
→ -17.8	2.1	7.6	-1.1
Cc1cccc(-c2ccc([C@@H]3[C@H]4CN(C(=O)c5cccnc5)CC(=O)N4[C@H]3CO)cc2)c1
→ 3.1	0.0	-11.6	3.6
O=C(C1CCC1)N1CC2(C1)[C@@H](c1ccccc1)[C@H](CO)N2C(=O)c1cccnc1
→ -2.5	2.7	-2.7	-3.9
C[C@H](CO)N1C[C@H](C)[C@@H](CN(C)CC2CCCCC2)Oc2c(NC(=O)CCCCCC(=O)Nc3ccccc3N)cccc2C1=O
→ -8.5	-10.8	-24.6	-0.8
O=C(Nc1ccc(F)cc1)N1CC(=O)N2[C@H](CO)[C@H](c3ccc(C#Cc4ccc(F)cc4)cc3)[C@H]2C1
→ 0.4	-44.2	-72.5	0.7
COc1ccc2c3c([nH]c2c1)[C@H](CO)N(C(=O)Nc1ccc(F)cc1)CC31CCN(C(=O)Cc2ccncc2)CC1
→ 2.5	-0.1	-7.8	-0.6
C[C@@H]1CCCCO[C@H](CN(C)Cc2ccc(Cl)c(Cl)c2)[C@@H](C)CN([C@H](C)CO)C(=O)c2cc(NS(=O)(=O)c3cn(C)cn3)ccc2O1
→ -0.6	0.7	-7.0	1.5
COc1cccc(-c2ccc([C@@H]3[C@H]4CN(C(=O)C5CC5)CC(=O)N4[C@H]3CO)cc2)c1
→ -1.6	-2.6	-11.2	4.6
CN(CC(=O)Nc1ccc(F)cc1)C(=O)c1ccc(OCc2ccccc2)cc1
→ -0.6	3.3	9.7	-0.7
C[C@@H]1CCCCO[C@H](CN(C)S(=O)(=O)c2ccc(Cl)cc2)[C@@H](C)CN([C@@H](C)CO)C(=O)c2cc(NC(=O)Cc3ccccc3)ccc2O1
→ 2.0	3.4	8.7	0.8
CO[C@H]1CN(C)C(=O)c2cc(NS(C)(=O)=O)ccc2OC[C@@H](C)N(C(=O)CC2CC2)C[C@H]1C
→ -2.2	3.1	4.2	-2.4
CN1C(=O)c2cc(NC(=O)c3cccs3)ccc2OC[C@@H]2O[C@H](CC(=O)O)CC[C@H]21
→ -2.0	1.8	-4.0	-0.3
C[C@H]1CN([C@@H](C)CO)S(=O)(=O)c2ccc(C#Cc3ccc(F)cc3)cc2O[C@@H]1CN(C)S(=O)(=O)c1ccc(F)cc1
→ -1.6	-2.2	1.3	-0.4
Cc1ccc(-c2ccc(C3[C@H]4CNC[C@@H]3N4Cc3ccc(F)cc3)cc2)cc1 (some centres not stated)
→ -0.5	-8.0	-27.6	27.5
CN(C)C(=O)c1ccc(-c2ccc([C@H]3[C@H](CO)N4C(=O)CN(C(=O)C5CC5)C[C@@H]34)cc2)cc1
→ -0.6	5.7	10.4	0.1
COc1ccc2c3c([nH]c2c1)[C@@H](CO)N(C(=O)c1cccc(F)c1)CC31CN(C(=O)CC2CC2)C1
→ -2.1	1.6	0.9	-1.1
O=C(C1CCOCC1)N1CC2(C1)[C@H](c1ccccc1)[C@@H](CO)N2Cc1ccccc1F
→ -10.9	-1.6	7.2	0.8
COc1ccc2c3c([nH]c2c1)[C@H](CO)N(Cc1ccc2c(c1)OCO2)CC31CCN(C(=O)Nc2c(C)noc2C)CC1
→ 3.3	2.0	-1.8	-0.9
O=C(c1ccc(F)cc1)N1CC(=O)N2[C@H](C1)[C@H](c1ccc(C#Cc3ccc(F)cc3)cc1)[C@@H]2CO
→ -3.4	-29.2	-46.9	7.2
COCC(=O)Nc1ccc2c(c1)C(=O)N(C)C[C@H](OC)[C@H](C)CN(CCc1ccccc1)[C@@H](C)CO2
→ 9.4	0.0	1.0	0.7

smiles	AF4-AF9 inh	Ecoli rRNA inh	Ecoli rRNA inh OD600	Ecoli rRNA inh RFP
COc1ccc(-c2ccc3c(c2)[C@@H]2[C@@H](CCN2C(=O)NC2CCCC2)[C@H](CO)N3C)cc1	36.2*	-13.3	-35.5	5.2
CCCN1[C@H](CO)[C@H](c2ccc(C3=CCCC3)cc2)[C@H]1CN(C(C)=O)C1CCCC1	0.9	1.4	-7.0	4.8
Cc1ccc([C@H]2C[C@@H](O)[C@H](n3cc(COC(=O)c4ccccc4)nn3)CN2Cc2cccs2)cc1	-0.6	14.7	11.9	2.3
Fc1ccc(-c2ccc(C3[C@@H]4CN(Cc5nccs5)C[C@H]3N4)cc2)cc1 (some centres not stated)	7.9&10.2	-18.0&-22.9	-53.7&-48.0	22.5&1.1
C[C@@H]1CCCCO[C@H](CN(C)Cc2ccccc2)[C@@H](C)CN([C@@H](C)CO)C(=O)c2cc(NS(=O)(=O)c3ccc(Cl)cc3)ccc2O1	5.5	-12.8	-45.9	30.2
COc1ccc(C#Cc2ccc3c(c2)[C@@H]2[C@@H](CCN2C(=O)C2CCC2)[C@@H](CO)N3)cc1	5.4	-6.5	2.2	1.8
Cc1ccc(S(=O)(=O)N(C)C[C@H]2OCCCC[C@H](C)Oc3ccc(NC(=O)c4ccncc4)cc3C(=O)N([C@H](C)CO)C[C@H]2C)cc1	0.8	-3.3	-8.5	2.9
CCCNC(=O)N1CCC2(CC1)CN(C(=O)c1cccnc1)[C@H](CO)c1[nH]c3cc(OC)ccc3c12	-0.2	0.7	10.4	1.4
COc1ccc(S(=O)(=O)Nc2ccc3c(c2)C(=O)N([C@H](C)CO)C[C@@H](C)[C@H](CN(C)S(=O)(=O)c2ccc(Cl)cc2)OCCCC[C@@H](C)O3)cc1	0.0	-2.6	-4.1	-3.8
C[C@@H]1CCCCO[C@@H](CN(C)C(=O)Nc2ccc(C(F)(F)F)cc2)[C@@H](C)CN([C@H](C)CO)C(=O)c2cc(N(C)C)ccc2O1	9.4	2.1	0.4	2.7
O=C(NC1CCC1)[C@@H]1[C@@H](CO)[C@@H]2Cn3c(ccc(C4=CCCC4)c3=O)[C@@H]2N1C(=O)C1CCC1	-12.4	4.2	7.0	3.0
O=C(c1ccccn1)N1CC[C@H]2[C@H](CO)Nc3ccc(C#Cc4ccccc4)cc3[C@H]21	12.9	-41.6	-66.0	-7.3
O=C(C1CCOCC1)N1CC(=O)N2[C@H](CO)[C@H](c3ccc(-c4ccccc4F)cc3)[C@@H]2C1	0.9	4.4	-0.7	-3.1
COc1ccc2c3c(n(C)c2c1)[C@H](CO)N(Cc1ccncc1)CC31CN(C(=O)Nc2cccc(F)c2)C1	-2.7	1.2	-0.3	-0.3
CC(=O)N(Cc1cccc(F)c1)C[C@@H]1[C@@H](c2ccccc2)[C@@H](CO)N1C(C)=O	-3.5	1.3	4.3	1.7
CNC[C@@H]1OCCCC[C@@H](C)Oc2ccc(NS(=O)(=O)c3ccc(C)cc3)cc2C(=O)N([C@@H](C)CO)C[C@H]1C	1.2	5.8	7.2	0.9
CN1c2ccc(C3=CCCCC3)cc2[C@H]2[C@H](CCN2C(=O)C2CCCCC2)[C@H]1CO	26.5*	3.1	15.6	-0.4
O=C(Cc1cccnc1)N1CC(=O)N2[C@H](CO)[C@@H](c3ccc(C#CC4CCCC4)cc3)[C@@H]2C1	1.8	-2.0	5.4	2.4
Cc1cc(C(C)(C)C)ccc1OC(=O)C1=CC=CN2CCS(=O)(=O)N=C12	-1.5	3.5	3.0	-1.2
C[C@@H]1CN([C@@H](C)CO)C(=O)c2cccc(NC(=O)CCCCCC(=O)Nc3ccccc3N)c2O[C@@H]1CN(C)Cc1ccncc1	-1.7	3.0	7.3	-0.2
Cc1noc(C)c1S(=O)(=O)Nc1ccc2c(c1)C(=O)N([C@H](C)CO)C[C@H](C)[C@H](CN(C)C(=O)c1ccccc1)OCCCC[C@@H](C)O2	-5.9	-0.6	-2.4	-3.7
